# Screening results (PubChem)
# HNF4A DNA FP: change in binding of human HNF4 alpha to DNA | 360,000 compounds, 0.3% hits | HNF4a-FITC DNA binding, fluorescence polarization, 1 h | activity change, % at 10 µM; in the data active means activity change above about 30%, passing the limit was not always enough;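 further: controls were the assay level and a saturating level of protein; the project sought stronger binding though the title names inhibitors; some compounds called inactive have numbers as strong as hits; positive values seem to mean higher polarization but the record does not say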
# Target sequence (P41235 whole entry, looked up): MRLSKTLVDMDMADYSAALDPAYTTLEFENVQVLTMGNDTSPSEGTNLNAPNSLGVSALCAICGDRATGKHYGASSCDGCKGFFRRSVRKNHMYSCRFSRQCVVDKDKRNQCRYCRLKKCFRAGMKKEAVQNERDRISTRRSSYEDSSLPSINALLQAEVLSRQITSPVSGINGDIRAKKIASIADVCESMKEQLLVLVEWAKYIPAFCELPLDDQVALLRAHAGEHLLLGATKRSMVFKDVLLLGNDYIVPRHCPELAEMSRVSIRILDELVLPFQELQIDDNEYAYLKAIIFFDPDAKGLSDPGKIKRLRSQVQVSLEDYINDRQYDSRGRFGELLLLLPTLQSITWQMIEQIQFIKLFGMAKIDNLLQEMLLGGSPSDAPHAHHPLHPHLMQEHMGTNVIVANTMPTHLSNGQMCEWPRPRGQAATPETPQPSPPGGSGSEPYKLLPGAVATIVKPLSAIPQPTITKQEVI
# Beta2AR agonist: agonists of human beta-2 adrenergic receptor inducing internalization | 340,000 compounds, 0.43% hits | AID 504454 | response, % (test concentration not listed) | P07550 | Am2.2-beta2AR cells, FAP receptor internalization, flow cytometry; reference of the scale not given here;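 active means response above a set limit, near 3 SD of response in nonfluorescent compounds, cut at about 42% in these data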;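 further: stock transfer was 100 nL into about 11 µL; a reference agonist was the positive control; negative values mostly stem from fluorescent compounds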
# Target sequence (P07550 whole entry, looked up): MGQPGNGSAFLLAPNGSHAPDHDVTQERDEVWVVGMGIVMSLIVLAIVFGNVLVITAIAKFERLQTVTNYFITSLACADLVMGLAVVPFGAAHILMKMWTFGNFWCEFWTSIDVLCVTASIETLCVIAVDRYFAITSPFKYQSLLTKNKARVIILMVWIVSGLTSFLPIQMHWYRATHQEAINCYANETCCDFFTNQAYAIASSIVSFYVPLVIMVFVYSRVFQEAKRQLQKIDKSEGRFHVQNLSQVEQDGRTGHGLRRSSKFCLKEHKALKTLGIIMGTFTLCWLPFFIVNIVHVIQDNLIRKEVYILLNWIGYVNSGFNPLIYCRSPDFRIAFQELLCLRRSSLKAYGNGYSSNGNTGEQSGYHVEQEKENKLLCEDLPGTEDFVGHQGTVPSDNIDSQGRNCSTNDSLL
# E coli growth: E. coli growth inhibition; Escherichia coli growth, OD600, 23 h; active compounds read low; OD600 absorbance (test concentration not listed); 330,000 compounds, 0.21% hits;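 active means OD600 absorbance below the run mean of sample wells minus 3.6 SD, in any replicate, cut at about 0.56 in these data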;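 further: stock transfer was 300 nL into about 60 µL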
# FGF22 binding: binders of recombinant human FGF22 by thermal shift. 340,000 compounds, 1.5% hits. calls only at 9.99 µM. AID 651658. SYPRO orange fluorescence; percent of sucrose octasulfate shift, DMSO zero. Q9HCT0;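 active means melting point raised past a set limit in the mean and every replicate; three in four hits are not shown here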
# LANA-H2B inh: blocks KSHV LANA binding to histone H2A/H2B; cell-free LANA-H2A/H2B peptide, fluorescence polarization; inhibition, % (no concentration beside the values); Q9QR71; 320,000 compounds, 0.6% hits; in the data active means inhibition mostly above about 10%, no sharp cut-off; inactive means mostly below about 6.7%;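 further: stock transfer was 7.5 nL into about 10 µL; 0% = median of vehicle wells and 100% = median of positive control wells; one replicate is shown; the record names a cut of 25% in any replicate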
# ALR H2O2 inh: inhibitors of human sulfhydryl oxidase ALR; P55789; purified ALR, DTT oxidation, H2O2 HRP-luminol luminescence; inhibition, % (test concentration not listed); 290,000 compounds, 3.8% hits; AID 485317;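 active means mean and each replicate at 75% or more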;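 further: stock transfer was 7.5 nL into about 7.5 µL; 0% = neutral wells and 100% = wells with inactivated enzyme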
# Target sequence (P55789 whole entry, looked up): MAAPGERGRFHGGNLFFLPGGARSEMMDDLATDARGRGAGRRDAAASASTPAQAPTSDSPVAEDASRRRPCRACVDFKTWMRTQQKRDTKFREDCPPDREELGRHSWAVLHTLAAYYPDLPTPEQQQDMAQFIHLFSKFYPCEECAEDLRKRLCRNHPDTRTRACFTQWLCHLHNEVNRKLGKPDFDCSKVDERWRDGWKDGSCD
# UCH37 DUB inh: inhibitors of human deubiquitinating enzyme UCH37; purified proteasome/UCH37, Ub-AMC cleavage fluorescence; inhibition, % (concentration not given with the values); 330,000 compounds, 0.33% hits; AID 588478;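 active means mean of two replicates above 20%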;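 further: 0% = compound-free wells with enzyme and 100% = wells lacking proteasome; stock transfer was 100 nL into about 20 µL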
#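 system = Proteasome-associated human UCH37 deubiquitinase | amount = 0.15 nM proteasome as dispensed | medium = pH 7.4 Tris-HCl (50 mM) with ovalbumin, ATP-MgCl2, DTT | incubation = 30 min preincubation with enzyme, 25 min cleavage at room temperature | detection = AMC fluorescence 355/460 nm | read-out basis = percent inhibition | controls = no-proteasome and no-compound wells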
# * = called active by the depositor; i = inactive; · = no result given. Not all compounds are listed; count on the stated rates, not on these rows.
SMILES,HNF4A DNA FP,Beta2AR agonist,E coli growth,FGF22 binding,LANA-H2B inh,ALR H2O2 inh,UCH37 DUB inh
Cc1ccc([N+](=O)[O-])cc1N=C1C(=O)Nc2ccccc21,-2.3,-5,0.69,i,-2.8,-12,5.3
CCC(C)(C)n1nnnc1C(c1cccs1)N1CCN(Cc2ccccc2)CC1 (centres undefined),-0.9,1,0.67,·,-3.5,-1,-1.2
Cc1cc(C)cc(OCC(=O)OC(C)C(=O)Nc2c(C)n(C)n(-c3ccccc3)c2=O)c1 (centres undefined),-1.6,-4,0.66,i,-2.8,6,-0.9
CCN(CC)S(=O)(=O)c1ccc2oc(C(=O)NC3CCCc4ccccc43)c(C)c2c1 (centres undefined),3.1,10,0.67,i,1.2,-16,-0.8
Cn1c(=O)c2[nH]c(CN3CCCCC3)nc2n(C)c1=O,-1.3,-10,0.73,i,·,·,0.8
COC(=O)c1ccc(CNC(=O)CN(CCC(C)C)S(=O)(=O)c2ccc3c(c2)OCCO3)cc1,-2.7,11,·,i,1.3,-5,0.4
C=CCNC1=C(Cl)C(=O)N(Cc2ccccc2)C1=O,4.2,-4,0.69,i,-3.3,-2,-2.2
CCS(=O)(=O)n1nc(-c2ccc(Cl)cc2)nc1SCc1ccccc1,·,·,0.66,·,-9.2,-12,3.7
Cc1oc(C(=O)O)cc1COc1cccc2cccnc12,-2.7,7,0.7,·,-4.8,-111,-1.1
S=C1NC[C@H](Cc2cccc3ccccc23)N1CC1CCCCC1,0.5,-12,·,i,-2.8,·,1.3
CCOC(=O)c1c(NC(=O)COC(=O)C2CCC2)sc(C(=O)N(C)C)c1C,3.1,-2,0.68,i,·,·,4.8
CC(C)OCCCn1c(SCC(=O)Nc2ccccc2C(F)(F)F)nc2nccnc2c1=O,3.7,-3,0.69,i,2.8,-12,2.3
COc1ccc(-c2cnnc(N/N=C/c3ccc(O)cc3)n2)cc1,0.3,-4,·,i,8.2,3,·
COc1ccc(OC)c(NC(=O)c2nc(S(=O)(=O)Cc3ccccc3)ncc2Cl)c1,2.1,38,·,i,8.5,-7,·
O=C(C1=NN[C@@H]2C(=O)N(c3ccccc3C(F)(F)F)C(=O)[C@H]12)C(c1ccccc1)c1ccccc1,1.6,-5,0.7,·,-6.2,-1,4.1
O=S(=O)(c1ccccc1)N1CCC2(CC1)OCCN2S(=O)(=O)c1cccs1,-1.4,1,0.71,·,·,·,3.8
Cn1nc(CC(=O)NCCN2C(=O)CSC2=O)c2ccccc2c1=O,1.2,-5,0.63,·,0.3,-7,0.7
CC1CCN(C(=O)C(C)OC(=O)CSc2ccc([N+](=O)[O-])cc2)CC1 (centres undefined),5.1,-12,0.68,i,1.2,14,7.5
CC(C)(C)[C@@H]1C=C(C(=O)NCc2ccccc2)O[C@H](OCc2ccc(CO)cc2)C1,-0.5,-10,·,i,-4.1,-31,0.4
O=C(CCN1CCN(S(=O)(=O)c2ccc(Cl)cc2)CC1)Nc1ccccc1F,0.1,6,0.73,i,-1.0,-33,-0.8
O=C(CCCCCn1c(=S)[nH]c2cc3c(cc2c1=O)OCO3)N1CCN(c2ccc(F)cc2)CC1,2.5,-6,0.7,i,-2.5,-2,1.2
COc1ccc(C)cc1S(=O)(=O)N1CCC(C(=O)NCCC2=CCCCC2)CC1,-7.3,-1,0.68,·,2.0,-8,32*
CCn1nc(C)cc1C(=O)N1CCCC(C(=O)c2ccccc2SC)C1 (centres undefined),2.7,4,0.68,i,-0.2,-2,2.7
CCN(Cc1ccc(OC)c(COC)c1)CC1CCCN(CCc2cccc(OC)c2)C1 (centres undefined),3.2,5,0.65,i,-4.7,-5,1.2
COc1ccc(OC)c(NC(=O)Cn2c(-c3ccc(Cl)cc3)noc2=O)c1,1.2,15,0.65,·,-3.8,-13,4.7
O=C(CNCC1CCCO1)N1CCN(S(=O)(=O)c2ccc3ccccc3c2)CC1 (centres undefined),4.7,3,0.74,·,-4.7,-4,5.8
O=C(O)c1ccc(-c2ccccc2Cl)o1,0.2,-2,0.7,·,-1.8,-3,0.0
O=S(=O)(c1ccc(F)cc1)N1CCC(N2CCCC2)CC1,-1.2,1,0.77,·,0.5,-37,3.1
Cc1ccc2nc(NC(=O)CSc3nc4c(c(=O)n3C)SC(C)C4)sc2c1 (centres undefined),-1.1,-5,0.76,·,-0.8,99*,8.1
C/C(O)=C\c1nc2ccccc2oc1=O,-0.6,2,·,·,2.4,95*,·
Cc1nc2c([N+](=O)[O-])c(C)c(C)cc2[nH]1,-3.1,2,0.65,·,-1.3,2,6.3
CCCC(=O)Nc1ccc(N2CCN(S(C)(=O)=O)CC2)cc1,-0.8,-3,0.71,·,3.0,-16,-1.9
Cc1nn(-c2nc3ccccc3s2)c(N)c1-c1ccccc1,-0.1,7,0.68,i,-0.4,-8,0.4
Cn1nnc2cc(C(=O)Nc3ccc(Cl)cc3)ccc21,2.1,-2,0.71,i,-3.2,·,-2.8
CC(=O)c1cccc(NC(=O)/C(=C\c2cccnc2)NC(=O)c2ccco2)c1,-1.4,5,0.7,i,-0.8,15,0.4
CCCCC(O)(c1ccc(OC)cc1)C(CN1CCOCC1)c1ccccc1 (centres undefined),0.5,6,0.65,i,-3.3,1,-0.7
Cn1c(=O)c2c(ncn2CC(COCc2ccccc2)OCc2ccccc2)n(C)c1=O (centres undefined),-6.1,2,0.63,i,1.7,-5,0.4
CCN1CCN(CCOc2ccccc2-c2ccccc2)CC1,-1.0,13,0.68,i,0.7,·,0.6
Cc1nnc(SCC(=O)N(Cc2ccccc2)C(C)C)n1-c1ccccc1,-1.9,-8,0.74,·,-0.7,-2,1.1
Cc1cc(=O)oc2cc(NC(=S)NCc3ccccn3)ccc12,1.7,-5,0.68,i,2.1,24,-50

# Ten structures from above, arranged by heavy-atom count, low to high.
SMILES,HNF4A DNA FP,Beta2AR agonist,E coli growth,FGF22 binding,LANA-H2B inh,ALR H2O2 inh,UCH37 DUB inh
C/C(O)=C\c1nc2ccccc2oc1=O,-0.6,2,·,·,2.4,95*,·
Cc1oc(C(=O)O)cc1COc1cccc2cccnc12,-2.7,7,0.7,·,-4.8,-111,-1.1
CCCC(=O)Nc1ccc(N2CCN(S(C)(=O)=O)CC2)cc1,-0.8,-3,0.71,·,3.0,-16,-1.9
Cc1cc(=O)oc2cc(NC(=S)NCc3ccccn3)ccc12,1.7,-5,0.68,i,2.1,24,-50
Cn1nc(CC(=O)NCCN2C(=O)CSC2=O)c2ccccc2c1=O,1.2,-5,0.63,·,0.3,-7,0.7
CCn1nc(C)cc1C(=O)N1CCCC(C(=O)c2ccccc2SC)C1 (centres undefined),2.7,4,0.68,i,-0.2,-2,2.7
Cc1ccc2nc(NC(=O)CSc3nc4c(c(=O)n3C)SC(C)C4)sc2c1 (centres undefined),-1.1,-5,0.76,·,-0.8,99*,8.1
CCCCC(O)(c1ccc(OC)cc1)C(CN1CCOCC1)c1ccccc1 (centres undefined),0.5,6,0.65,i,-3.3,1,-0.7
CCN(CC)S(=O)(=O)c1ccc2oc(C(=O)NC3CCCc4ccccc43)c(C)c2c1 (centres undefined),3.1,10,0.67,i,1.2,-16,-0.8
CCN(Cc1ccc(OC)c(COC)c1)CC1CCCN(CCc2cccc(OC)c2)C1 (centres undefined),3.2,5,0.65,i,-4.7,-5,1.2

# Next structures.
SMILES,HNF4A DNA FP,Beta2AR agonist,E coli growth,FGF22 binding,LANA-H2B inh,ALR H2O2 inh,UCH37 DUB inh
CNC(=S)SCCOc1ccccc1C,1.5,-2,0.71,i,-0.2,-9,5.9
Cn1c(=O)[nH]c2c(cnn2C)c1=O,7.5,-9,0.67,i,·,·,2.8
CCC(C)NS(=O)(=O)c1ccc(OCC(=O)N2CCCC2)cc1 (centres undefined),-4.5,2,0.65,i,1.5,-2,0.7
COc1ccc2[nH]cc(CCNC(=O)Cc3ccc(F)cc3)c2c1,0.2,-8,0.63,i,-5.9,10,-0.1
CSc1ccccc1NC(=O)Nc1ccccc1Cl,2.1,0,0.69,i,6.2,-11,5.4
CN(Cc1ccccc1F)C(=O)CCNC(=O)c1ccc(C(C)(C)C)cc1,0.6,-7,0.7,i,0.3,·,0.9
Cc1c(O)c(=O)c2ccccc2n1C,-1.8,1,0.71,i,-6.7,19,i
Nc1ccccc1Nc1cc(-c2ccccc2)nn1-c1ccccc1,4.9,-16,0.69,i,-5.5,6,0.5
CC1CC(C)CN(C(=O)CCCNC(=O)c2ccc(Cl)cc2)C1 (centres undefined),-1.8,-14,0.7,i,0.4,-10,0.0
Cc1[nH]c2ccccc2c1C(c1ccncc1)N1CCN(c2ccc(F)cc2)CC1 (centres undefined),-3.6,13,0.69,·,-6.8,-2,5.6
COc1ccc([N+](=O)[O-])cc1NC(=O)c1csc(C)c1,-0.5,6,0.71,i,5.3,6,2.8
Cc1noc(C)c1COC(=O)c1csc2c1CCCC2,-2.3,14,0.61,i,·,·,1.0
COc1ccc(-c2oc3ncn(CCN4CCOCC4)c(=N)c3c2-c2ccc(OC)cc2)cc1,0.1,7,0.72,·,0.8,-4,-1.2
Cc1cc(NC(=O)CSc2cn(CCNC(=O)c3ccc(F)cc3)c3ccccc23)no1,0.2,-11,0.75,·,-2.9,54,3.2
c1ccc(OCC2CCNCC2)nc1,-1.9,-5,0.67,i,-0.5,-5,3.9
CCCCn1c(N)c(N(CCOC)C(=O)COC(=O)COc2c(C)cccc2C)c(=O)[nH]c1=O,-1.5,-3,0.72,i,-0.4,-11,1.5
COc1ccc(NC(=O)CNC(=O)c2nn(-c3ccc(OC)c(Cl)c3)c(=O)c3ccccc23)c(OC)c1,1.6,-4,0.68,i,-1.8,-6,0.2
CC(C)(C)c1ccc(C(=O)NC(=S)NCc2ccco2)cc1,0.7,3,0.69,i,-2.3,-4,3.8
CC(C)CCC1(C)NC(=O)N(CC(=O)c2ccc[nH]2)C1=O (centres undefined),6.2,19,0.68,i,1.0,-5,2.0
COc1ccc(/C=N\NC(=O)c2cc(O)c(O)c(O)c2)cc1CN1CCN(c2ccc(F)cc2)CC1,-9.4,2,·,·,-4.2,39,·
Cc1nc(S/C(=C/c2ccc(-c3ccc(Cl)cc3)o2)C(=O)O)n[nH]1,2.7,9,0.76,·,1.3,24,2.2
CCc1ccccc1NC(=O)NCCN1CCCCC1,5.0,5,0.69,i,-2.6,0,4.1
Cc1ccc(C(=O)N/C(=C\c2ccc(F)cc2)C(=O)NCCN2CCOCC2)cc1,-0.8,10,0.7,i,0.7,1,2.2
O=C(CN1C(=O)c2ccccc2S1(=O)=O)NC1CCCC1,4.8,3,0.68,·,2.9,-4,4.7
O=C(C=C=Nc1ccccc1)C(=O)N=C=Cc1ccccc1,-1.1,37,0.68,i,-1.5,7,4.2
Cn1c(=O)oc2cc(S(=O)(=O)Nc3ccc4c(c3)OCCO4)ccc21,-2.0,-8,0.67,·,0.4,-1,5.2
CCC1Sc2ccccc2N(CC(=O)NCc2ccccc2OC)C1=O (centres undefined),1.2,2,0.7,·,4.5,-12,0.3
CCOc1ccc(Cc2c(Cl)nc(SC)nc2OC)cc1,-1.8,-8,0.68,·,2.3,·,2.7
CCN(CC)CCOC(=O)c1ccc(NC(=O)CNC(=O)c2ccccc2)cc1,-0.1,-6,0.72,i,-0.5,·,0.8
COc1ccc(C)cc1S(=O)(=O)N(CC(=O)NCc1ccc(Cl)cc1)Cc1ccccc1,-0.7,23,0.72,·,1.7,-18,2.9
Cc1ccc(S(=O)(=O)N2CCN(CCc3ccncc3)CC2)cc1,1.2,7,0.68,i,2.1,2,-1.0
Cc1ccc(N=Nc2c(C)[nH]n(-c3ccccc3)c2=O)cc1,12,1,0.68,·,-0.4,-13,6.3
O=C(CSc1nnc(C2CC2)n1C1CC1)Nc1cccc(Br)c1,-1.2,-4,0.66,i,-236,·,0.7
O=C(Nc1cccc(F)c1)NC1(C(=O)NCC2CCCO2)CCCCC1 (centres undefined),-0.6,-2,0.66,i,-3.8,-1,1.4
